# Beta cell apopt = beta cell apoptosis inhibition. hit rate 0.8% among 300,000. protection from apoptosis, % (test concentration not listed). AID 435005. INS-1E cytokine-induced death, ATP luminescence, 48 h; percent of positive-control rescue, neutral wells zero;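 active = all replicates at 75% or more, or half of them and the mean; inconclusive = half reach 75% but not the mean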;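 also: 0% = cytokine-treated negative control wells and 100% = positive control rescue; higher means more ATP so stronger rescue from cytokine killing; wells of about 40 µL received 100 nL stock; the first replicate is given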
# Ecoli growth = blocks Escherichia coli growth; OD600, 23 h; hits give low values; OD600 absorbance (no concentration beside the values); hit rate 0.21% among 330,000;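 active = OD600 absorbance below the run mean of sample wells minus 3.6 SD, in any replicate, cut at about 0.56 in these data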;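 also: stock transfer was 300 nL into about 60 µL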
# A1 inh = inhibitors of the anti-apoptotic protein A1, read as caspase activation. MEF A1-2A-BIM cells, Caspase-Glo 3/7 luminescence, 3 h; percent of clofoctol response, vehicle zero. caspase activation, % (no concentration beside the values). hit rate 0.066% among 330,000. AID 2462;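 active = over half of replicate activation scores above 10%, or exactly half above 10 with the replicate mean above 10; inconclusive = replicate mean below 10 yet half the replicates above 10; inactive = over half of replicates below 10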;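 also: wells of about 30 µL received 50 nL stock; many hits fall short of the cut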
# T cruzi inh = T. cruzi replication inhibition. T. cruzi beta-gal in NIH3T3, luminescence, 90 h. inhibition, % (no concentration beside the values). hit rate 1.4% among 300,000;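 active = mean inhibition across valid replicates above about 55%, limit read from the data; inconclusive = mean below that limit but half or more replicates reach it; inactive = mean below it, under half of replicates reach it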;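 also: signal also drops with host cell toxicity which is not excluded here; 0% = plate median of DMSO wells and 100% = zero luminescence signal; higher percent means less beta-gal luminescence so fewer parasites; stock transfer was 50 nL into about 50 µL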
# UCH37 DUB inh = human UCH37 deubiquitinating enzyme inhibition. hit rate 0.33% among 330,000. AID 588478. purified proteasome/UCH37, Ub-AMC cleavage fluorescence. inhibition, % (test concentration not listed). Q9Y5K5;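 active = mean of two replicates above 20%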;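 also: 0% = compound-free wells with enzyme and 100% = wells lacking proteasome; stock transfer was 100 nL into about 20 µL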
# Target sequence (Q9Y5K5 whole entry, looked up): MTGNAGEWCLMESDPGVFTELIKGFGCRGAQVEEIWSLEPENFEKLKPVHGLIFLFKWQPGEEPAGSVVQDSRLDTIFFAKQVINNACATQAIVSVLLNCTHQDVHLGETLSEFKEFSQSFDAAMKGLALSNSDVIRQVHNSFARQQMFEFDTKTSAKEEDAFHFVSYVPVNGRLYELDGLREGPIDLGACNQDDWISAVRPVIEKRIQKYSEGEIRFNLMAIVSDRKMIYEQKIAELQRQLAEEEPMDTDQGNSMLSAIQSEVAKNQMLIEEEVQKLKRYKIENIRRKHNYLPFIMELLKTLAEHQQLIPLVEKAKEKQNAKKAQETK
#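 Schedule: 30 min plus 25 min, room temperature / Material: human UCH37 within purified proteasomes / Technique: AMC fluorescence intensity at 355/460 nm / Buffer or medium: pH 7.4 Tris-HCl (50 mM) with ovalbumin, ATP-MgCl2, DTT / Controls: wells without proteasome as full block, compound-free enzyme plus substrate as uninhibited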
# MLL AF4-AF9 inh = MLL-AF4/AF9 protein interaction inhibition | AID 651704 | hit rate 0.47% among 350,000 | inhibition, % at 10 µM | AlphaScreen, biotin-AF4 peptide binding to FLAG-AF9;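 active = every replicate reaching a set inhibition limit, whatever the replicate mean, cut at about 25% in these data; inconclusive = mean inhibition reaches that limit but some replicates miss it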;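 also: 0% = plate neutral control median and 100% = total signal loss; the record names both 10 and 1 µM as test concentration; the first replicate is given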
# Target sequence (P42568 whole entry, looked up): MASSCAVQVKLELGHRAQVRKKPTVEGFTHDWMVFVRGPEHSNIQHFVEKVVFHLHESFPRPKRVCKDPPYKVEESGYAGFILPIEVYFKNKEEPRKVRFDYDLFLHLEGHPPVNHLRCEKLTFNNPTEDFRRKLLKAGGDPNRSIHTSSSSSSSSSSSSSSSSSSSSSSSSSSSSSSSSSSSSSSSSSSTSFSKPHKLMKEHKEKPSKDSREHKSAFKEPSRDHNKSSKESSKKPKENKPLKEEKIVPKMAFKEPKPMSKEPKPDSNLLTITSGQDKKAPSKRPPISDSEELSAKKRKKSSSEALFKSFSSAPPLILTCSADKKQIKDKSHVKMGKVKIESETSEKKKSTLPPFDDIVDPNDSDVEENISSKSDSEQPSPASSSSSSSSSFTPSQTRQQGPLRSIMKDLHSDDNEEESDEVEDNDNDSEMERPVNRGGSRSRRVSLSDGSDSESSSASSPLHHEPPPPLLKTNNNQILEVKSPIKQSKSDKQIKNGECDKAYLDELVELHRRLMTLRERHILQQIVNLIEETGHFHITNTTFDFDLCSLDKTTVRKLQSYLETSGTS
# rRNA inh HTS = selective bacterial rRNA inhibition in E. coli; AID 720706; E. coli WT GFP vs humanized-ribosome RFP mutants, fluorescence, 24 h; hits give low values; DMSO median 0, no signal -100; hit rate 1.6% among 350,000; GFP signal change (wild-type ribosome), % (test concentration not listed);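 active = significant combined selectivity score with lowered wild-type GFP, culture density cut under 30%, mutant RFP and density less affected; inactive = any of these conditions unmet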; also: one replicate is shown; some compounds called inactive have numbers as strong as hits
# FGF22 binding = shifts melting point of recombinant human FGF22. Q9HCT0. recombinant FGF22 thermal shift, SYPRO orange fluorescence; percent of sucrose octasulfate shift, DMSO zero. calls only at 9.99 µM. hit rate 1.5% among 340,000. AID 651658;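 active = melting point raised past a set limit in the mean and every replicate; inconclusive = no clear call; three in four hits are not shown here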
# Target sequence (Q9HCT0 whole entry, looked up): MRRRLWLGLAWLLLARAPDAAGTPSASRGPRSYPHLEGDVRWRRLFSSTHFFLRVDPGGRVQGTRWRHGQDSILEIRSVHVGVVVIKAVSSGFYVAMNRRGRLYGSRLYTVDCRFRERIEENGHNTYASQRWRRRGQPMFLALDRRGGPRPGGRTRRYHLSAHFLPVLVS
# rRNA inh HTS OD600 = recorded beside rRNA inh HTS, whose call it bears; OD600 change, %; measured here: OD600 growth;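 optical density of the mix in the first replicate; 0 = DMSO median and -100 = no signal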
# rRNA inh HTS RFP = second read-out of rRNA inh HTS, no call of its own (marks repeat the call); RFP signal change, %; measured here: RFP humanized mutant strains;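 first replicate; 0 = DMSO median and -100 = no signal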
# The depositor's hits bear a star; i = inactive; ? = inconclusive; . = no result given.
SMILES,Beta cell apopt,Ecoli growth,A1 inh,T cruzi inh,UCH37 DUB inh,MLL AF4-AF9 inh,rRNA inh HTS,rRNA inh HTS OD600,rRNA inh HTS RFP,FGF22 binding
NS(=O)(=O)c1ccc(CCNS(=O)(=O)c2cccs2)cc1,0,0.71,-0.1,-16,-0.1,-2.0,1,5,-3.0,i
COCc1c(C(=O)N2CCc3ccccc32)oc2ccccc12,4,0.66,0.1,-1,3.7,5.4,-21,-31,-5.5,i
COCCN(CC(=O)NCC1CCCO1)C(=O)CCC(=O)Nc1cc(C)on1 (centres undefined),-12,0.69,-0.7,-6,2.7,.,.,.,.,.
O=C(CN1CCN(C(=O)C2COc3ccccc3O2)CC1)Nc1ccccc1 (centres undefined),-5,0.64,-0.1,.,1.6,1.4,11,7,3.2,i
CN(C(=O)c1ccc(NC(=O)Cc2ccc(NC(=O)C3CCCN(C(=O)C4CCCCC4)C3)cc2)cc1)C1CC1 (centres undefined),9,0.71,-0.7,.,0.5,-1.9,-1,-2,-1.7,i
CCOC(=O)C(=CNNc1cccc(Cl)c1)C(=O)OCC,-1,0.57,-2.0,7,3.1,0.7,.,.,.,i
CCC(C(=O)NCc1ccco1)N(Cc1cccs1)C(=O)CNS(=O)(=O)c1ccccc1 (centres undefined),-27,0.72,-0.3,5,4.0,.,.,.,.,.
CCOC(=O)c1cnc(SCC(=O)NCc2cccs2)nc1N,6,0.73,0.1,-23,3.2,.,.,.,.,.
Cc1cc(C)n(-c2ccc(NC(=O)C3CCN(Cc4cnc(C)s4)CC3)cc2)n1,6,.,-0.1,-9,.,0.7,-1,-9,-5.4,i
COc1ccc(OC)c(S(=O)(=O)Nc2ccc(O)c(Sc3ncn[nH]3)c2)c1,-5,0.67,0.3,-13,1.3,6.7,.,.,.,i
Cc1ccc(NC(=O)Nc2cccs2)cc1,-2,0.69,0.2,-29,5.0,.,.,.,.,.
Cc1ccc(S(=O)(=O)c2c(C)nn(C(C)(C)C)c2OC(=O)c2ccc(Br)o2)cc1,-12,0.66,-0.5,2,-1.0,.,.,.,.,.
C=C1C[C@H]2[C@@H]3CCc4cc(OC)ccc4[C@H]3CC[C@]12C,4,.,0.9,-20,0.3,-2.1,5,10,-9.4,i
CCCNC(=O)NC(=O)CSc1cccc(C(F)(F)F)c1,-1,0.65,-0.2,12,1.8,-0.6,6,5,0.2,i
CN(CC(=O)NCCc1ccc(S(N)(=O)=O)cc1)S(=O)(=O)c1cccc2nsnc12,-2,0.68,-0.3,-1,2.3,-5.8,16,15,7.7,i
Cc1nc(-c2cccnc2)sc1C(=O)Nc1ccc(Cl)cc1,3,0.61,0.4,13,3.8,.,.,.,.,.
Cc1ccc(NC(=O)C(C)OC(=O)Cc2c[nH]c3ccccc23)cc1 (centres undefined),-8,0.64,0.1,4,4.9,0.6,0,-8,-0.5,i
O=C(CNS(=O)(=O)c1c(Cl)cccc1Cl)N1CCCCCC1,-2,0.64,-0.2,-13,1.6,-4.2,14,9,2.7,i
CCOC(=O)C(C)c1c(C(=O)c2ccc(C)nc2)c2ccccc2n1C (centres undefined),.,0.64,1.5,0,5.4,-0.5,-3,4,1.5,i
COc1ccc(C(CNC(=O)c2ccc(S(=O)(=O)Nc3ccccc3OC)cc2)N2CCCC2)cc1 (centres undefined),.,0.7,.,.,3.0,8.5,-3,-37,19,i
Cc1noc(C)c1S(=O)(=O)N1CCCCC1,-3,0.65,0.2,-8,2.3,-4.6,3,6,2.3,i
CC1CCCCC1NC(=O)CNC(=O)c1ccco1 (centres undefined),-3,0.67,1.0,-10,1.2,-2.0,5,12,1.6,i
COc1ccc(/C=C/C(=O)Nc2c(C(=O)O)[nH]c3ccccc23)cc1OC,0,0.69,-1.6,-7,16,7.2,3,-1,2.7,i
CCCCC(CCC(=O)O)(C(=O)OCC)c1csc(Nc2ccccc2)n1 (centres undefined),-4,0.69,-0.8,3,3.0,.,.,.,.,.
Clc1ccc2[nH]c3c(NCC4CCCO4)ncnc3c2c1 (centres undefined),36,0.6,0.5,3,-0.3,.,.,.,.,.
O=C(CCC(=O)N1CCSc2ccccc21)NCc1ccc(Cl)cc1,-9,0.71,0.1,-7,3.7,?,-21,-62,-6.8,i
CCOC(=O)c1c(C)[nH]c(C)c1S(=O)(=O)NCc1ccc(OCC)cc1,-2,.,0.9,-10,.,-3.6,-3,-3,4.5,i
Cc1ccc(SCc2[nH]nc3c2C2(CCSCC2)C(C#N)=C(N)O3)cc1,-7,0.7,-0.1,-6,5.3,.,.,.,.,.
CCN(CC)S(=O)(=O)c1cccc(NC(=O)CSc2nnc(N)s2)c1,0,0.65,-0.2,5,1.1,-8.5,-10,-7,3.2,i
O=C(c1ccccc1)N1CCCC(C(=O)N2CCCCCC2)C1 (centres undefined),5,0.72,-0.5,-21,6.2,.,.,.,.,.
CC(C)(O)c1cc2ccc(C#Cc3ccsc3)cc2c(=O)o1,-1,.,-2.2,.,-3.9,-2.1,-35,-58,-20,i
O=C(CC(CC(=O)c1ccccc1)c1ccccc1)c1ccccc1,-1,0.66,0.3,4,3.4,-1.7,-26,-30,-9.3,i
CNC(=O)Cc1nc2ccccc2n1CC(=O)Nc1cc(C)cc(C)c1,-7,0.68,?,-4,-1.6,-3.5,-4,3,0.8,i
COc1cccc(-c2nn(C)c3sc(C(=O)N4CCN(c5ccccc5)CC4)cc23)c1,5,0.68,0.2,24,1.5,.,.,.,.,.
O=C(CN1C(=O)NC2(CCCC2)C1=O)OCc1ccc(Br)cc1,-1,0.64,0.2,-13,1.9,-15,-1,5,-1.9,i
CCOC(=O)c1c(CN2CCN(CC#N)CC2)n(C)c2cc(Br)c(OC)cc12,-3,0.66,-0.7,1,4.7,-0.6,1,1,-1.1,i
COc1ccc(-c2nn(-c3ccccc3)cc2C(=O)Nc2ccc(C(=O)O)cc2)cc1OC,-1,0.69,0.6,3,0.4,6.2,-12,1,3.7,i
COc1cc(NC(=O)C/C(C)=N/NC(=O)c2cccc(O)c2)c(OC)cc1Cl,-6,.,-0.9,-13,.,3.6,0,-9,-2.4,i
CN(C)CCCN(C(=O)c1ccco1)c1nc2ccc(Cl)cc2s1,-3,0.61,0.5,50,5.7,12,-19,-38,-4.6,.
Cn1c(=O)c2c(nc3n2CC(O)CN3c2ccccc2)n(C)c1=O (centres undefined),-2,0.64,-0.4,-16,0.6,2.6,21,8,0.2,i

# Grouped by structure, the compounds so far containing bromine
SMILES,Beta cell apopt,Ecoli growth,A1 inh,T cruzi inh,UCH37 DUB inh,MLL AF4-AF9 inh,rRNA inh HTS,rRNA inh HTS OD600,rRNA inh HTS RFP,FGF22 binding
Cc1ccc(S(=O)(=O)c2c(C)nn(C(C)(C)C)c2OC(=O)c2ccc(Br)o2)cc1,-12,0.66,-0.5,2,-1.0,.,.,.,.,.
O=C(CN1C(=O)NC2(CCCC2)C1=O)OCc1ccc(Br)cc1,-1,0.64,0.2,-13,1.9,-15,-1,5,-1.9,i
CCOC(=O)c1c(CN2CCN(CC#N)CC2)n(C)c2cc(Br)c(OC)cc12,-3,0.66,-0.7,1,4.7,-0.6,1,1,-1.1,i

# (cont.)
SMILES,Beta cell apopt,Ecoli growth,A1 inh,T cruzi inh,UCH37 DUB inh,MLL AF4-AF9 inh,rRNA inh HTS,rRNA inh HTS OD600,rRNA inh HTS RFP,FGF22 binding
Cc1oc(-c2ccccc2Cl)nc1CN1CCCN(C(=O)c2ccco2)CC1,1,0.67,0.2,28,-2.3,1.2,2,-2,-0.7,i
Cc1ccnc(NC(c2ccccc2)c2ccc3cccnc3c2O)c1 (centres undefined),.,0.72,.,.,1.8,29*,-58,-73,-23,i
Cc1[nH]c2ccccc2c1N=Nc1ccccc1C(=O)O,-13,0.69,-0.1,5,12,3.1,5,3,-3.9,i
O=C(NCCN1CCCC1)c1ccc(Cn2c(=S)[nH]c3ccc(Br)cc3c2=O)cc1,-8,0.67,-0.5,13,5.7,3.5,.,.,.,.
CCC1CCc2c(sc(NC(=O)c3cnccn3)c2C(N)=O)C1 (centres undefined),2,0.7,1.2,9,3.6,0.4,16,17,2.8,i
CN(CC(=O)Nc1cccc(F)c1)C(=O)c1ccc(-n2cncn2)c([N+](=O)[O-])c1,-5,0.67,0.8,-15,2.5,-0.1,5,11,-3.9,i
CC(=O)c1ccc(S(=O)(=O)NCCc2csc(-c3cccnc3)n2)cc1,-3,0.71,-0.7,7,1.2,-2.1,9,5,2.0,i
COc1ccccc1NC(=O)CN1CCN(C(=O)C2CCCO2)CC1 (centres undefined),0,0.71,-0.1,-4,0.3,-1.9,11,11,-2.4,i
CCC1(C)Cc2c(sc3nc(SC)nc(N)c23)CO1 (centres undefined),-1,0.7,0.9,2,-0.2,.,-1,1,-3.2,.
Cc1cccc(C(=O)NCCc2nnc(SCC(=O)Nc3nc(C)cs3)n2C)c1,-4,0.7,0.1,8,-2.8,.,.,.,.,.
CC1CN(C(=O)COC(=O)c2c(Cl)cccc2Cl)CC(C)O1 (centres undefined),-3,0.7,-1.5,-11,1.1,-0.7,13,0,-3.1,i
O=C(/C=C/c1cc2ccccc2o1)c1ccccc1O,3,0.7,-0.9,19,3.1,5.7,8,5,2.5,i
CC(C)CCNC(=O)Cn1c2c(c(-c3ccccc3Cl)cc1=O)CCC2,-1,0.74,0.0,-7,-9.6,-8.6,-1,4,-2.2,i
O=C(NCC(c1cccs1)N1CCOCC1)c1ccc(Cl)nc1 (centres undefined),0,0.68,1.5,.,-0.5,-1.2,11,24,-0.5,i
O=C(CCS(=O)(=O)c1ccc(Cl)cc1)OCC(=O)N1CCCCC1,-2,0.69,0.4,-18,1.3,.,.,.,.,.
COc1ccc(-n2nc(C(=O)NCC(=O)N3CCCC3)c3ccccc3c2=O)cc1Cl,0,0.67,0.2,-7,-1.6,-3.3,-6,-4,-5.9,.
Cc1cc(/C=C(\C#N)C(=O)NCc2cccs2)c(C)n1-c1ccc([N+](=O)[O-])cc1,.,0.67,0.0,11,6.3,1.7,-8,-10,7.1,i
COc1ccc(C2=NO[C@@H]3C(=O)N(c4cccc(C)c4C)C(=O)[C@H]23)cc1OC,6,0.69,-0.4,-12,3.8,.,.,.,.,.
O=C1CC(c2ccco2)CC2=C1C=Nc1ccccc1N2 (centres undefined),-6,0.67,0.7,-13,1.9,.,.,.,.,.
COc1cc(/C=C2/SC(=S)N(Cc3ccccc3)C2=O)ccc1OCC(=O)O,-6,.,0.0,-2,.,9.9,-6,-7,15,i
CC(=O)c1cccc(NC(=S)NC(=O)CC(C)(C)C)c1,6,0.7,0.2,4,2.7,.,.,.,.,.
Cc1cc(N=Cc2c(O)n(-c3cccc(Cl)c3)c(=O)c3ccccc23)no1,25,0.68,0.0,-1,-4.2,.,.,.,.,.
COc1ccc(NC(=O)CSc2ccccc2)c([N+](=O)[O-])c1,-9,0.66,0.7,3,3.1,4.3,-4,-6,0.3,i
CC1CCCCC1NC(=O)COC(=O)c1c2c(nc3ccccc13)/C(=C/c1ccco1)CC2 (centres undefined),-2,0.72,-0.6,-7,-28,-7.2,-6,4,-1.5,i

# From PubChem BioAssay

# Some of the compounds tested, so the mix of outcomes need not match the whole.
